# High-throughput results from PubChem BioAssay.
# FGF22 binding: binders of recombinant human FGF22 by thermal shift. calls only at 9.99 µM. actives 1.5% (n = 340,000). SYPRO orange fluorescence; percent of sucrose octasulfate shift, DMSO zero;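 active = melting point raised past a set limit in the mean and every replicate; inconclusive = no clear call; three in four hits are not shown here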
# Target sequence (Q9HCT0 whole entry, looked up): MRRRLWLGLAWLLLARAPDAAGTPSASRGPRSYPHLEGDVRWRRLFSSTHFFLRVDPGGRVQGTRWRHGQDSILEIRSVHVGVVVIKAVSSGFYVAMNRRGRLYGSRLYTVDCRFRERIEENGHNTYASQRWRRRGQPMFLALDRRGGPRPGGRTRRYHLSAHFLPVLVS
# Beta apoptosis: blocks beta cell apoptosis; AID 435005; actives 0.8% (n = 300,000); protection from apoptosis, % (test concentration not listed); INS-1E cytokine-induced death, ATP luminescence, 48 h; percent of positive-control rescue, neutral wells zero;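 active = all replicates at 75% or more, or half of them and the mean; inconclusive = half reach 75% but not the mean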;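 also: 0% = cytokine-treated negative control wells and 100% = positive control rescue; higher means more ATP so stronger rescue from cytokine killing; wells of about 40 µL received 100 nL stock; the first replicate is given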
# ALR H2O2 inh: inhibitors of human sulfhydryl oxidase ALR. P55789. purified ALR, DTT oxidation, H2O2 HRP-luminol luminescence. inhibition, % (concentration not given with the values). actives 3.8% (n = 290,000). AID 485317;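 active = mean and each replicate at 75% or more; inconclusive = only one of the two met; inactive = neither met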;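 also: stock transfer was 7.5 nL into about 7.5 µL; 0% = neutral wells and 100% = wells with inactivated enzyme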
# Target sequence (P55789 whole entry, looked up): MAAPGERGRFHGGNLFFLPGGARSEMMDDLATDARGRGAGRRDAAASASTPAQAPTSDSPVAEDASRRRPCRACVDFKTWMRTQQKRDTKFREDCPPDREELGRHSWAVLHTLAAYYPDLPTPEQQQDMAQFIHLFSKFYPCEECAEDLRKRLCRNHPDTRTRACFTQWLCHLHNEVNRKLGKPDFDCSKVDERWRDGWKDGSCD
# Calb FLC: affects C. albicans growth with fluconazole; C. albicans CaCi-2 (fluconazole-resistant clinical isolate) + fluconazole, Alamar Blue growth, 48 h; growth inhibition, % (concentration not given with the values); actives 0.57% (n = 300,000); AID 1979;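 active = most replicates above 75%; inconclusive = exactly half above 75%; inactive = most below 75%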;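 also: all wells also contain fluconazole at 8 µg/ml as a sub-toxic cotreatment; 0% = median of DMSO wells and 100% = median of geldanamycin control wells; wells of about 8 µL received 7.5 nL stock; the first replicate is given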
# RanGTP-Imp inh: disruptors of Ran-importin-beta complex formation – biochemical, FRET, CFP-Ran, YFP-importin-beta, homogeneous, primary screen; AID 2216; cell-free CFP-Ran/YFP-importin-beta FRET ratio; inhibition, % (no concentration beside the values); actives 1.1% (n = 300,000);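 active = most replicates above 15%; inconclusive = exactly half above 15%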;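 also: 0% = DMSO wells and 100% = Ran loaded with GDP instead of GTP; wells of about 40 µL received 100 nL stock; the first replicate is given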
# T cruzi inh: blocks replication of Trypanosoma cruzi; T. cruzi beta-gal in NIH3T3, luminescence, 90 h; inhibition, % (test concentration not listed); actives 1.4% (n = 300,000);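 active = mean inhibition across valid replicates above about 55%, limit read from the data; inconclusive = mean below that limit but half or more replicates reach it; inactive = mean below it, under half of replicates reach it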;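 also: signal also drops with host cell toxicity which is not excluded here; 0% = plate median of DMSO wells and 100% = zero luminescence signal; higher percent means less beta-gal luminescence so fewer parasites; stock transfer was 50 nL into about 50 µL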
# rRNA inh HTS: inhibitors of bacterial rRNA selective over humanized ribosomes; E. coli WT GFP vs humanized-ribosome RFP mutants, fluorescence, 24 h; active compounds read low; DMSO median 0, no signal -100; GFP signal change (wild-type ribosome), % (no concentration beside the values); actives 1.6% (n = 350,000); AID 720706;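 active = significant combined selectivity score with lowered wild-type GFP, culture density cut under 30%, mutant RFP and density less affected; inactive = any of these conditions unmet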; also: one replicate is shown; some compounds called inactive have numbers as strong as hits
# AF4-AF9 inh: blocks AF4 peptide binding to human AF9; P42568; AlphaScreen, biotin-AF4 peptide binding to FLAG-AF9; inhibition, % at 10 µM; actives 0.47% (n = 350,000); AID 651704;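 active = every replicate reaching a set inhibition limit, whatever the replicate mean, cut at about 25% in these data; inconclusive = mean inhibition reaches that limit but some replicates miss it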;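 also: 0% = plate neutral control median and 100% = total signal loss; the record names both 10 and 1 µM as test concentration; the first replicate is given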
# Target sequence (P42568 whole entry, looked up): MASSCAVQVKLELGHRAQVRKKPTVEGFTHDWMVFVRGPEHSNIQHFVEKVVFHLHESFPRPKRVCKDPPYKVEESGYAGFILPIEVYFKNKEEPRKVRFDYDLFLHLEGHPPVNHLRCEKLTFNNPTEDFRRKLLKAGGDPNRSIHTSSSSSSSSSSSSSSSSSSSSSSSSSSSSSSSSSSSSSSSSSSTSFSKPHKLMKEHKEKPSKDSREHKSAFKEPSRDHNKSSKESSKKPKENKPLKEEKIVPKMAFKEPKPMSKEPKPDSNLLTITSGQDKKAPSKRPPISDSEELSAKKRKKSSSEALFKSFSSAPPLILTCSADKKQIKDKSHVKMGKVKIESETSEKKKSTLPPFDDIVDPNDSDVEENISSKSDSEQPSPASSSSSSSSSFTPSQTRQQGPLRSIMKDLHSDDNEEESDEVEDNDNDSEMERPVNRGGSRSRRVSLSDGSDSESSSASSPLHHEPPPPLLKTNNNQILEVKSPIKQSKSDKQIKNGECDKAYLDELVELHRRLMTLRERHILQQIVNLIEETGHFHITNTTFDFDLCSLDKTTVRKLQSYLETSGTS
# rRNA inh HTS OD600: recorded beside rRNA inh HTS, whose call it bears; OD600 change, %; measured here: OD600 growth;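 optical density of the mix in the first replicate; 0 = DMSO median and -100 = no signal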
# rRNA inh HTS RFP: further read-out of rRNA inh HTS, marked with its call; RFP signal change, %; measured here: RFP humanized mutant strains;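 first replicate; 0 = DMSO median and -100 = no signal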
# * = called active by the depositor; i = inactive; ? = inconclusive; . = no result given. This is a subset (hit frequency here may not be typical).
# The first three entries as a preview:
SMILES,FGF22 binding,Beta apoptosis,ALR H2O2 inh,Calb FLC,RanGTP-Imp inh,T cruzi inh,rRNA inh HTS,rRNA inh HTS OD600,rRNA inh HTS RFP,AF4-AF9 inh
S=c1[nH]nc(-c2ccncc2)n1/N=C/c1cccc2ccccc12,i,-3,-1,8,4.2,-6,13,4,-1.1,-2.3
Cc1ccc(C(=O)CCS(=O)(=O)c2ccc(Cl)cc2)cc1,i,-13,10,-6,1.1,27,2,2,-1.0,1.6
CCOC(=O)Cn1nc(C)c(NC(=O)COc2ccc(C)c(C)c2)c1C,i,-1,2,7,4.9,-4,6,11,4.1,-1.9

# This part in full, repeating the preview:
SMILES,FGF22 binding,Beta apoptosis,ALR H2O2 inh,Calb FLC,RanGTP-Imp inh,T cruzi inh,rRNA inh HTS,rRNA inh HTS OD600,rRNA inh HTS RFP,AF4-AF9 inh
S=c1[nH]nc(-c2ccncc2)n1/N=C/c1cccc2ccccc12,i,-3,-1,8,4.2,-6,13,4,-1.1,-2.3
Cc1ccc(C(=O)CCS(=O)(=O)c2ccc(Cl)cc2)cc1,i,-13,10,-6,1.1,27,2,2,-1.0,1.6
CCOC(=O)Cn1nc(C)c(NC(=O)COc2ccc(C)c(C)c2)c1C,i,-1,2,7,4.9,-4,6,11,4.1,-1.9
COc1ccc(N2CC(C(=O)OCC(=O)Nc3cccc(C)c3)CC2=O)cc1 (stereo not drawn),i,4,-3,0,1.1,8,-1,-2,1.1,0.1
COc1ccc(C(=O)NN=C(Cc2ccccc2)Cc2ccccc2)cc1OC,.,7,10,20,5.0,10,.,.,.,.
COc1cccc(NC(=O)C2CCCN2C(=O)OCc2ccccc2)c1 (stereo not drawn),.,-11,-7,-3,-3.8,-11,.,.,.,.
Cc1ccc(C(=O)Nc2ccccc2[N+](=O)[O-])cc1S(=O)(=O)N1CCOCC1,i,-19,.,15,0.9,-7,-2,-6,2.6,4.1
CN(C)c1ccc(NC(=S)NC(=O)/C=C/c2ccc(Cl)cc2)cc1,.,1,6,2,0.4,-4,.,.,.,.
O=C(N/C(=C/c1cccc([N+](=O)[O-])c1)C(=O)N1CCCCCC1)c1ccco1,i,-5,3,9,2.6,-15,7,8,0.5,0.3
Cc1ccc(NC(=O)c2oc(=O)c3ccccc3c2-c2ccccc2)c(C)c1,.,14,-1,6,-0.4,-13,.,.,.,.
COc1ccc(-n2c(=S)[nH]c3cc(C(=O)NCc4cccnc4)ccc3c2=O)c(OC)c1,i,-2,-2,6,2.1,-7,-8,-10,-1.1,-0.1
CCN(CC)S(=O)(=O)c1ccc2nnn(O)c2c1,i,-6,-2,-1,4.7,-23,1,-10,2.6,-1.1
Cc1ccc(S(=O)(=O)Nc2ccccc2F)cc1C(=O)OC(C)C(=O)N1CCOCC1 (stereo not drawn),i,0,1,-4,.,0,3,7,-2.4,11
O=C(COC(=O)C1(c2ccc(Cl)cc2)CCCC1)NC1CCS(=O)(=O)C1 (stereo not drawn),.,0,4,-3,-6.5,6,-23,-52,2.5,.
Cc1nn(C(C)C(=O)NCc2cccs2)c(C)c1[N+](=O)[O-] (stereo not drawn),i,2,-10,2,3.0,2,7,4,2.5,-2.9
CC1(C)CC(=O)c2c(O)c(-c3ccccc3)c(=O)n(-c3ccccc3)c2C1,.,0,-3,2,6.8,13,.,.,.,.
CC(C)N1CCN(S(=O)(=O)c2ccccc2)CC1,i,4,-4,-4,-1.0,-11,1,4,0.0,1.4
O=C(O)c1nn2c(c1Br)NC(c1ccccc1)CC2C(F)(F)F (stereo not drawn),.,-1,17,-4,-1.8,-8,.,.,.,.
CC(NC(=O)CN(c1ccc(F)cc1)S(C)(=O)=O)c1ccccc1 (stereo not drawn),i,-2,-2,-14,2.0,-5,1,11,0.8,0.9
CCOc1cc(/C=C2\COc3ccccc3C2=O)ccc1OCC(=O)N(C)C,i,6,8,7,4.4,-14,0,-23,0.6,3.9
Cc1ccc(NC(=S)NNC(=O)Cn2nc([N+](=O)[O-])cc2C)cc1,i,2,85*,-1,-3.5,4,.,.,.,-0.2
Clc1cc(NC2CCCCC2)ncn1,i,-1,-1,-3,3.8,-11,6,7,5.9,-1.8
CCN(CC)c1ccc(C(=S)NCc2ccccc2)cc1,i,4,.,-4,?,13,-4,4,-5.3,-0.8
O=C(NCc1cnn(-c2ccc(F)cc2)c1)C1CCC(=O)N(C2CC2)C1 (stereo not drawn),i,1,-9,25,2.2,-19,9,11,-0.1,0.3
CCOc1ccc(NC(=O)C2CC(=O)OC2c2ccccc2)cc1 (stereo not drawn),i,0,-5,-1,1.1,-5,-1,-8,-3.9,1.3
Cc1ccc(NC(=O)CSc2ncccn2)cc1F,i,-9,-7,-2,96*,-8,-10,-11,-1.5,-1.4
O=Nc1c(O)n(Cc2ccccc2)c2ccccc12,i,-9,.,-19,0.3,1,-56,-80,-29,4.0
CCOC(=O)c1[nH]nc(C(=O)c2ccc(Br)cc2)c1O,.,-1,14,3,2.7,-19,.,.,.,.
COc1nc(-c2ccc(C)cc2)ccc1-c1noc(-c2ccco2)n1,.,-1,.,19,5.1,-13,.,.,.,.
CCSC1=C(C#N)C(c2ccc(Cl)cc2)C2=C(CCCC2=O)N1 (stereo not drawn),.,-3,5,3,5.9,5,.,.,.,.
CC(C)(CO)N=Cc1c(O)[nH]c2ccccc12,.,-1,100*,-12,-3.9,-7,.,.,.,.
COc1ccc(CN2C=C3C(=O)C(C)(OC(=O)CCc4ccccc4)C(=O)C=C3C=C2c2ccc(C#N)cc2)cc1 (stereo not drawn),i,0,.,-3,-0.1,11,7,10,2.4,4.4
Cc1ccc(-c2cc(C(=O)n3cnc4ccccc43)c3ccccc3n2)cc1C,.,.,-3,27,-2.3,-5,.,.,.,.
COc1ccc2sc(N3C(=O)CC(Cc4cccc(C)c4)C3=O)nc2c1 (stereo not drawn),i,3,5,-1,4.4,-18,-33*,-6.8*,14*,1.6
CC(=O)N(Cc1ccco1)C1(C(=O)NC2CCCC2)CCCCC1,.,0,-2,12,5.0,-9,.,.,.,.
CCCCn1c(O)c(/C=C2\C=NN=C2c2ccccc2)sc1=S,.,-6,9,-2,4.9,16,.,.,.,.
Cc1ccsc1C(=O)Nc1nc2ccccc2[nH]1,i,44,-2,-9,-0.4,-10,-7,-7,-1.2,-2.7
COc1ccc(CCN(Cc2cc3ccc(C)cc3n3nnnc23)C(C)=O)cc1OC,i,-5,.,?,-4.3,-10,7,2,0.0,1.5
CC/C(=N/O)C(=O)c1ccc(Br)cc1,i,-6,-4,-21,4.9,-10,1,-12,-3.0,-0.2
COc1ccc(C(=O)Nc2sc3c(c2C#N)CCN(C(C)=O)C3)cc1,i,9,-12,-5,42*,-40,1,3,22,-2.3
Cc1cccc(C(C)(C)C)c1OCCn1ccnc1,.,-6,9,-30,-0.5,30,.,.,.,.
C=CCn1c(=NC(=O)c2ccco2)sc2cc(C(=O)OCC)ccc21,.,0,.,22,1.5,17,.,.,.,.
CN(C)CCn1c2c(c(SCC(=O)NCc3ccccc3)nc1=O)CCCC2,i,-8,-7,-13,1.4,5,19,22,-1.4,-6.8
Cc1ccc(-n2c(-c3ccncc3)n[nH]c2=S)cc1,i,-4,11,16,3.2,-5,3,4,0.1,-5.4
COc1ccc(-c2nn[nH]n2)cc1OC,.,3,12,-8,1.7,-10,.,.,.,.
O=C1C2C(c3ccccc3)C=CC(c3ccccc3)C2C(=O)N1c1cccnc1 (stereo not drawn),i,-16,-1,-4,-0.3,-4,-11,3,0.2,-5.0
COCCN(C(=O)CSCc1ccccc1)c1c(N)n(Cc2ccccc2)c(=O)[nH]c1=O,i,-1,-5,-4,-5.7,4,-2,-8,6.1,-0.5
Cc1cc(NC(=O)CCC(=O)N(CC(=O)NC2CCCC2)c2cccc(F)c2)no1,.,-2,.,7,-1.2,5,3,7,0.2,-2.8
Cc1ncc([N+](=O)[O-])n1Cc1ccc(Br)cc1,i,3,-5,?,-5.1,-24,-5,-5,0.5,-1.8
CCn1c(COc2cccc(OC)c2)nnc1SCC(=O)Nc1cc(OC)ccc1OC,.,-7,-51,?,-0.8,15,-23*,-15*,1.3*,.

# Next section
SMILES,FGF22 binding,Beta apoptosis,ALR H2O2 inh,Calb FLC,RanGTP-Imp inh,T cruzi inh,rRNA inh HTS,rRNA inh HTS OD600,rRNA inh HTS RFP,AF4-AF9 inh
CCN(CC)S(=O)(=O)c1ccc2c(c1)nc(SCC(=O)NC1CC1)n2-c1ccccc1OC,.,11,-28,-3,-0.9,13,.,.,.,.
CCn1c(=O)c(CCC(=O)NCC2CCCO2)c(C)c2c(C)nn(-c3ccc(C)cc3)c21 (stereo not drawn),i,15,-2,-7,-2.4,-9,-1,11,0.9,-2.5
CCOc1ccc(-c2nnc(NC3=NCCCCC3)o2)cc1,.,-6,7,9,-1.0,-6,.,.,.,.
O=C(NCC1CCCO1)c1ccc(NC(=O)c2cccc([N+](=O)[O-])c2)cc1 (stereo not drawn),i,.,-1,-10,0.9,-14,10,10,-2.2,-0.9
Cc1cc(NC(=O)COC(=O)C2CC(=O)N(c3cccc(C)c3C)C2)no1 (stereo not drawn),i,-2,1,0,1.0,-14,5,6,1.1,-1.9
Cc1ccnc(NC(=O)C(C)N2C(=O)c3ccccc3C2=O)c1 (stereo not drawn),i,-8,-3,-12,-5.1,-6,11,7,-1.0,-2.3
COc1ccccc1NC(=O)N1CCCC1C(=O)NCCc1ccccc1 (stereo not drawn),i,0,13,0,9.5,-5,-13,-30,0.0,1.3
COCCn1c(=N)c(S(=O)(=O)c2ccc(F)cc2)cc2c(=O)n3cccc(C)c3nc21,i,-2,-6,0,-2.7,-13,2,7,0.4,0.5
CCOc1ccc(NC(=O)C(CC(=O)O)Cc2ccc(C)cc2)cc1 (stereo not drawn),i,-11,9,9,1.0,-6,2,-3,2.4,0.3
O=S(=O)(Nc1ccc(Cl)cc1)c1cccc2nsnc12,i,2,18,2,4.2,-1,-14,-20,-7.2,3.2
COC(=O)CC1(c2ccc(OC)cc2)C(=O)c2ccccc2C1=O,i,-7,-2,-2,2.7,-14,-26*,-18*,3.6*,2.4
Cc1ccc(C2C(C(=O)c3sc(C)nc3C)=C(O)C(=O)N2CCN2CCOCC2)o1 (stereo not drawn),.,4,-10,-7,1.1,-6,.,.,.,.
O=C(CN1C(=O)CSCC1=O)NCc1ccc(F)cc1,i,-1,-6,10,-4.3,0,12,5,-2.6,-0.9
CCOC(=O)Nc1ccc(=O)n(Cc2c(Cl)cccc2Cl)c1,.,-5,2,34,-2.0,-5,.,.,.,.
N/C(Cc1ccc([N+](=O)[O-])cc1)=N\OC(=O)c1ccc2ccccc2c1,.,0,-7,-4,-1.9,-6,.,.,.,.
N#C/C(=C\c1ccccc1Cl)C(=O)Nc1ccccn1,i,-7,21,-1,44*,4,8,6,0.6,1.9
CCn1ccnc1CN(C)Cc1nc(-c2cccc(Cl)c2)no1,i,-2,-20,2,?,-13,.,.,.,0.6
COc1ccc(N2CCN(C(=O)C3CCCN(c4ncnc5c4nc4n5CCCCC4)C3)CC2)cc1 (stereo not drawn),i,4,60,-15,4.5,17,-26*,-18*,10*,11
